# TRPML1 agonist: activates the human TRPML1 channel; Q9GZU1; TRPML1-expressing cells, Ca2+ dye fluorescence, FDSS; host cell line not named in the record; reference of the full effect not given here; activation, % (concentration not given with the values); 410,000 tested, 0.12% active; in the data active = activation above about 50%; inconclusive = about 30% to 50%; inactive = below about 30%; further: 0% is about no effect; the text of the record puts the active cut at 80%
# Target sequence (Q9GZU1 whole entry, looked up): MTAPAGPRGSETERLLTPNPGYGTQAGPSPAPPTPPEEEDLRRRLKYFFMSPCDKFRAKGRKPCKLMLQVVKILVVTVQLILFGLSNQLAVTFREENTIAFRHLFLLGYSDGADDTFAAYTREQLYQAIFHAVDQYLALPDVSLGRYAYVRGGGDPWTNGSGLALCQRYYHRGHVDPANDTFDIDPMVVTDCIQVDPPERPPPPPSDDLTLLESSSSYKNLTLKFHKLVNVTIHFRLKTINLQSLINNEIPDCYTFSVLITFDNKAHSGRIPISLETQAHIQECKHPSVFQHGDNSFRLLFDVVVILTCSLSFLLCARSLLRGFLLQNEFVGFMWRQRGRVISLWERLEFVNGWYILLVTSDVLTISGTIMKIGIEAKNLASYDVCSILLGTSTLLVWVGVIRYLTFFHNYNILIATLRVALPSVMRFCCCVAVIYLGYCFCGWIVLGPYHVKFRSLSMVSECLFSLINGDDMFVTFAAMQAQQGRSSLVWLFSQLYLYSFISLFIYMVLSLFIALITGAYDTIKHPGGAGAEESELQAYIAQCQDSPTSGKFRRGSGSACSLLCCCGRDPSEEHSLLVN
#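 TRPML1-DL cells, Tet-induced overnight (~16 h, 37 degrees C), loaded 45-90 min at room temperature with Ca8 no-wash calcium dye plus quencher. FDSS fluorescence: 10 s baseline, compound pin-transfer, 110 s agonist read, then EC80 54-4 (4uM final) and 110 s antagonist read.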
# TRPML1 inh: blocks the human TRPML1 channel; activity change, negative = inhibition, % (test concentration not listed); 390,000 tested, 0.02% active; AID 624415; TRPML1-inducible cells, Ca2+ dye fluorescence, FDSS; active compounds read low; inhibition of EC80 agonist-evoked calcium signal; Q9GZU1; in the data active means activity change below about -50%; inconclusive means about -30% to -50%; inactive means above about -30%;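 further: stimulus is agonist 54-4 at its EC80 concentration; on the % scale 0 is the no-effect control and ±100 the full control effect; compound concentration not given in the record; the text of the record puts the active cut at -80%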
#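 TRPML1-DL cells, Tet-induced overnight (~16 h, 37 °C) at 1,500 cells/well, were loaded with Ca8 no-wash dye plus quencher for 45-90 min at room temperature. Compounds were pinned during FDSS kinetic reading; agonist 54-4 at EC80 (4 uM final) then added.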
# Menin MLL FP FL: displaces fluorescein MLL peptide from human menin; Fluorescence polarization, fluorescein-MLL peptide displacement from menin; FP activity change, % at 61.4 µM; 290,000 tested, under 10 active; AID 1766; inconclusive = falling polarisation curve, or a change in total fluorescence; inactive = total fluorescence flat and polarisation flat or rising; no compound was filed as active; the % refers to the polarisation; negative = inhibition;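 further: % of control where 0% means no effect; inhibitors lower the polarisation; unlabelled MLL peptide was the positive control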
# TRPV1 potentiator: human TRPV1 potentiation. AID 540277. TRPV1-expressing cells, Fluo-8 calcium influx, capsaicin EC20 potentiation; host cell line not named in the record; control for the full effect not named in the record. Q8NER1. potentiation, % at 8.33 µM. 320,000 tested, 0.02% active; active means potentiation above 80%; inconclusive means 30% to 80%; inactive means below 30%; further: 0% is about no effect
#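 TRPV1-expressing cells were cultured overnight at 35.5C and loaded with Fluo-8 calcium dye for 40 to 90 min at room temperature. After a 10 s baseline, compound was added and calcium influx was read kinetically for 3 min (ex 480/em 520 nm).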
# ClpP mod: qHTS Assay for Activators of ClpP; ATP-dependent Clp protease proteolytic subunit (Bacillus subtilis (strain 168)), P80244; purified B. subtilis ClpP, FRET peptide cleavage, 20 min; Potency, µM (series often up to 57.5 µM), without a hit: at the top dose activity change, negative = active; 340,000 tested, 1.9% active; AID 651965, 2013; active = well fitted falling curve with a large enough effect; inconclusive = small, poorly fitted or top-dose-only effect; inactive = no such curve, though single readings can be large or run the other way; further: potency means the concentration at half of the fitted maximal effect; the source files actives as falling curves though it sought activators and does not explain the sign; nearly all actives have a fitted effect of over 65% in size; many hits overshoot -100%
# Target sequence (P80244 whole entry, looked up): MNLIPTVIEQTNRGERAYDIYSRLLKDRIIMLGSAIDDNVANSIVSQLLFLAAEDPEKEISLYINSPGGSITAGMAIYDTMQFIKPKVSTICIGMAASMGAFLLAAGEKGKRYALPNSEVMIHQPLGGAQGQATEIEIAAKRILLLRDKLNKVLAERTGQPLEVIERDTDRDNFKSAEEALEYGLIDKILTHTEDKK
#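 ClpP 10 microg/mL final, pH 8 Tris/KCl buffer with BSA, glycerol, Tween-20; compound pinned in; FRET-FV substrate; RT 20 min; Ex320/Em430; ΔFRET vs ADEP 5.8 microM, DMSO, no enzyme.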
# Sfp PPTase inh: Sfp phosphopantetheinyl transferase inhibition. AID 1490. Q9F4F7. Biochemical Sfp PPTase activity, qHTS. Potency, µM, without a hit: max response, negative = inhibition, most hits filed as inhibitors. 310,000 tested, 3.5% active; active means well fitted inhibition curve with a large enough effect; inconclusive means small, poorly fitted or top-dose-only effect, or another doubt; inactive means no such curve, though single readings can be large or run the other way;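 further: the enzyme is Sfp with the accession as filed and its product quenches rhodamine fluorescence; potency means the concentration at half of the fitted maximal effect; 0% = enzyme reaction without inhibitor and -100% = no enzyme wells; top concentration of the series not given in the record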
#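 Reaction rates are the 30-min fluorescence difference (ex 525, em 598 nm) in wells containing 15 nM Sfp, 5 uM rhodamine-CoA and 12.5 uM BHQ-2-YbbR at pH 7.6 with 10 mM MgCl2.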
# PINK1 modulator: modulators of PINK1 expression; PINK1 immunofluorescence, high-content cytometry, 24 h; Potency, µM (top dose mostly 76.6 µM), without a hit: top-dose activation (PINK1 increase), usual class: activators; 410,000 tested, 0.2% active; active = well fitted activation curve with a large enough effect; inconclusive = small, poorly fitted or top-dose-only effect; inactive = flat fitted curve, though single readings scatter; cell line not stated here;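 further: potency means the concentration at half of the fitted maximal effect; % of control where 0% means no effect; nearly all actives have a fitted effect of over 65% in size; a mitochondrial uncoupler was the plate control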
#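 Fluorescence from anti-PINK1 antibody, together with nuclear and cell stains, was scanned on a laser-scanning cytometer. Before staining, stable-line cells were incubated 24 hours with compounds at 5 concentrations; primary antibody 12 h at 10 degrees C.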
# * hit, by the source's call; ? = inconclusive; . = no result given; & = joins results of further samples; [ ] = dose if it differs, or a comment. Not a hit list. Share with any hit: about 4.4%.
# Start of the data: the first five records, to show the layout:
# The line under a structure holds: TRPML1 agonist | TRPML1 inh | Menin MLL FP FL | TRPV1 potentiator | ClpP mod | Sfp PPTase inh | PINK1 modulator
[1] COc1ccc(CN2C(=O)CCC2(C)C(=O)NC2CCCC2)c(OC)c1 (centres undefined)
→ 0.1 | 4 | 4.7 | -6 | -1.1% | 10% | 0.2%
[2] Cc1nn(-c2ccccc2)c(Cl)c1C(=O)Nc1ccccc1
→ 0.0 | -5 | 5.8 | -11 | -0.7% | -6% | .
[3] Cc1ccc(-c2nnn(CC(=O)N(c3ccccc3)C(C(=O)NCC3CCCO3)c3ccc(Cl)cc3)n2)cc1 (centres undefined)
→ 1.9 | 19 | 3.1 | . | 0.3% | 26% | 8.7%
[4] Cn1c(/C(C#N)=C(\O)c2ccc(S(=O)(=O)N3CCCCC3)cc2)nc2ccccc21
→ 0.2 | -12 | -2.2 | -8 | 4.2% | -1% | ?
[5] Cc1ccc(NC(=O)C2CCC(CNS(=O)(=O)c3cccs3)CC2)cc1C (centres undefined)
→ 4.3 | -20 | . | . | -0.8% | . | -0.1%

# All compounds of this part, from the start:
# The line under a structure holds: TRPML1 agonist | TRPML1 inh | Menin MLL FP FL | TRPV1 potentiator | ClpP mod | Sfp PPTase inh | PINK1 modulator
[1] COc1ccc(CN2C(=O)CCC2(C)C(=O)NC2CCCC2)c(OC)c1 (centres undefined)
→ 0.1 | 4 | 4.7 | -6 | -1.1% | 10% | 0.2%
[2] Cc1nn(-c2ccccc2)c(Cl)c1C(=O)Nc1ccccc1
→ 0.0 | -5 | 5.8 | -11 | -0.7% | -6% | .
[3] Cc1ccc(-c2nnn(CC(=O)N(c3ccccc3)C(C(=O)NCC3CCCO3)c3ccc(Cl)cc3)n2)cc1 (centres undefined)
→ 1.9 | 19 | 3.1 | . | 0.3% | 26% | 8.7%
[4] Cn1c(/C(C#N)=C(\O)c2ccc(S(=O)(=O)N3CCCCC3)cc2)nc2ccccc21
→ 0.2 | -12 | -2.2 | -8 | 4.2% | -1% | ?
[5] Cc1ccc(NC(=O)C2CCC(CNS(=O)(=O)c3cccs3)CC2)cc1C (centres undefined)
→ 4.3 | -20 | . | . | -0.8% | . | -0.1%
[6] CC(C)C#Cc1cnc2c(c1)C(=O)N([C@@H](C)CO)C[C@@H](C)[C@H](CN(C)Cc1cccc(F)c1)O2
→ -0.5 | -2 | . | . | -3.4% | . | 4.2%
[7] Cc1ccc(S(=O)(=O)c2nc(Nc3ccccc3C#N)sc2Cl)cc1
→ 1.6 | 13 | -0.4 | 24 | -0.8% | -1% | 19%
[8] Cc1onc(-c2ccccc2)c1C(=O)Nc1nc2c(s1)C(=O)CC(C)(C)C2
→ -0.1 | 47 | -1.2 | 9 | -18% | 14% | 1.0%
[9] O=c1[nH]c(SCc2ccc([N+](=O)[O-])cc2)nc2c1CCCC2
→ 5.0 | 14 | . | . | 0.4% | . | 0.9%
[10] O=C(COC(=O)c1ccc(F)c(S(=O)(=O)N2CCCCC2)c1)NCc1ccc(F)cc1
→ 2.9 | 23 | 1.7 | -9 | . | -2% | -4.1%
[11] COc1ccc(-c2nnn(Cc3ccccc3F)n2)cc1
→ 0.8 | -10 | -1.3 | -4 | -0.8% | -10% | 3.7%
[12] Cc1c(C(=O)NCC(c2ccc(Cl)cc2)N2CCOCC2)oc2ccccc12 (centres undefined)
→ -0.3 | -3 | . | . | 1.2% | . | 9.1%
[13] Cc1ccnc(N2CCCC(C(=O)NCc3cccs3)C2)n1 (centres undefined)
→ -0.9 | 10 | -3.6 | 21 | ? | 8% | -1.2%
[14] CC(=O)NC(CC(=O)NNC(=O)COc1c(C)cccc1C)c1ccccc1 (centres undefined)
→ 1.4 | -5 | . | . | -0.6% | . | -4.1%
[15] C[C@@H]1CN([C@@H](C)CO)C(=O)c2cc(/C=C/c3ccccc3)cnc2O[C@@H]1CN(C)S(=O)(=O)c1ccc(F)cc1
→ -0.2 | 2 | . | . | 4.1% | . | -0.1%
[16] Cc1cccc(N2CCN(C(=O)C3COc4ccccc4O3)CC2)c1C (centres undefined)
→ 0.1 | 39 | 3.7 | -14 | -0.9% | -5% | 2.3%
[17] COC(=O)C1=C(C)N(c2ccc(S(N)(=O)=O)cc2)C(=O)C1
→ -0.1 | -8 | -0.1 | . | -2.7% | -23% | -1.9%
[18] CN1C2CCC1CC(NC(=O)c1cc(S(=O)(=O)N(C)C)c(Cl)cc1Cl)C2 (centres undefined)
→ -0.4 | 10 | . | -7 | 0.7% | . | 0.6%
[19] COc1cccc(NC(=O)CSc2ncc3c(n2)-c2ccc(Cl)cc2N(C)S3(=O)=O)c1
→ -0.2 | ? | . | . | -11% | . | 2.0%
[20] CSc1cccc(CN2CCN(Cc3ccc(F)c(F)c3)C(CCO)C2)c1 (centres undefined)
→ 0.6 | 2 | -2.3 | -12 | . | -8% | 2.1%
[21] CCc1nn(CCCC(=O)Nc2ccc(C)c(C)c2)c(=O)c2cc3occc3n12
→ -0.5 | 11 | 2.7 | 15 | -4.5% | 6% | 1.9%
[22] CCOc1ccc(C(=O)NCc2nc3cccnc3n2Cc2ccc(F)cc2)cc1OCC
→ 0.5 | 39 | . | . | -2.2% | . | -0.8%
[23] CCC1CCCCN1S(=O)(=O)c1ccc(C(=O)Nc2nnc(-c3cccs3)o2)cc1 (centres undefined)
→ 15 | 26 | 1.7 | -11 | -1.5% | 16% | 1.7%
[24] O=C(Oc1ccc2ccc(O)cc2c1)C1CCCCC1
→ 1.2 | -9 | 11 | 2 | . | 5% | 6.6%
[25] CCOc1ccc(OCc2cccc(C(=O)N3CCOCC3)c2)cc1
→ 1.5 | -30 | -1.8 | -17 | 2.1% | 9% | 2.9%
[26] CCc1ccc(-c2csc(-c3cc4cc(Br)ccc4oc3=O)n2)cc1
→ -0.7 | -15 | . | . | 1.2% | . | -0.1%
[27] COc1cccc(C=C(C(C)=O)C(=O)c2ccccc2)c1
→ -1.0 | . | . | . | 3.6% | . | 1.0%
[28] Cc1ccc(NC(=O)C2=CC(c3cccs3)=NS(=O)(=O)N2C)cc1
→ -0.6&0.7 | 1&5 | 4.1 | 2 | 0.3%&-2.5% | 21% | 5.0%&0.1%
[29] CCc1c(C)nc(SCC(=O)Nc2ccc3c(c2)OCCO3)[nH]c1=O
→ -0.5 | 38 | -2.6 | 19 | . | 7% | 3.3%
[30] O=S(=O)(Cc1ccccc1Cl)N1CCCC1
→ 1.3 | 12 | 5.9 | 0 | . | 6% | -1.6%
[31] Cn1c2c(c(=O)n(C)c1=O)C(c1ccccc1F)C(C#N)=C(N)O2 (centres undefined)
→ 0.5 | -18 | 11 | 2 | . | -22% | 1.0%
[32] O=C(/C=C/c1ccccc1)c1cc(Br)ccc(=O)c1O
→ 0.1 | 18 | ? | 18 | 2.4% | 16µM* | 0.5%
[33] Cc1cccc(N2CCN(Cc3nc(-c4ccc(F)cc4F)oc3C)CC2)n1
→ -0.3 | 2 | -0.3 | -16 | . | 3% | 1.2%
[34] CCN(CC)S(=O)(=O)c1ccc(C(=O)N2CCN(CCN3C(=O)c4cccc5cccc(c45)C3=O)CC2)cc1
→ . | . | -4.2 | -2 | . | 9% | .
[35] COC(=O)C(NS(=O)(=O)c1ccc(F)cc1)c1ccccc1 (centres undefined)
→ 2.4 | -25 | -4.3 | -3 | . | 16% | -0.6%
[36] COc1ccc(S(=O)(=O)N2CCC(C(=O)NCCc3ccccc3)CC2)cc1OC
→ -0.4 | -2 | 3.1 | -23 | 0.8% | 8% | 5.0%[38.3 µM]
[37] C=C1CC2(OC1=O)c1ccccc1CCc1ccccc12
→ 1.4 | 65 | . | . | 1.6% | . | -5.7%
[38] COC(=O)Nc1[nH]ncc1[N+](=O)[O-]
→ -1.0 | -1 | -6.6 | -2 | . | 11% | 2.9%
[39] COc1cccc(NC(=O)NCc2ccc(F)cc2)c1
→ -0.5 | -17 | 29 | -8 | . | 10% | 0.0%
[40] CCOc1ccccc1NC(=O)CN1CCCN(Cc2cccc(Cl)c2)S1(=O)=O
→ 4.8 | 32 | . | . | -2.0% | . | -0.8%

# The closing two entries of the part above lead into the next.
# The line under a structure holds: TRPML1 agonist | TRPML1 inh | Menin MLL FP FL | TRPV1 potentiator | ClpP mod | Sfp PPTase inh | PINK1 modulator
[39] COc1cccc(NC(=O)NCc2ccc(F)cc2)c1
→ -0.5 | -17 | 29 | -8 | . | 10% | 0.0%
[40] CCOc1ccccc1NC(=O)CN1CCCN(Cc2cccc(Cl)c2)S1(=O)=O
→ 4.8 | 32 | . | . | -2.0% | . | -0.8%
[41] Cc1cccc(C)c1NC(=O)COC(=O)c1ccccc1[N+](=O)[O-]
→ -0.4 | -8 | 1.1 | -4 | . | 20% | 0.6%
[42] COc1cccc(C(=O)NCCS(=O)(=O)N2CCC(C)CC2)c1
→ -0.2 | 9 | . | -6 | -1.1% | . | -1.4%
[43] COc1ccc(C(=O)N2CCC(C(=O)Nc3ccccc3OC)CC2)cc1
→ -0.7 | 0 | -0.4 | -8 | -1.1% | 5% | 7.3%[38.3 µM]
[44] COc1ccc(S(=O)(=O)N2CCC[C@H]2C(=O)N2CCC[C@H]2C(=O)NCc2ccccn2)cc1C
→ -0.5 | . | . | . | 0.8% | . | -0.3%
[45] CCCN1CCC(=O)N([C@H](CSc2ccc(OC)cc2)Cc2ccccc2)CC1
→ -0.3 | -18 | 3.7 | 1 | 1.9% | -2% | 2.1%
[46] Cc1ccc(CN2CCN(Cc3ccccn3)CC2CCO)cc1 (centres undefined)
→ 0.3 | 0 | -13 | 0 | . | -21% | -0.3%
[47] CCOc1ccccc1NC(=O)CN1C(=O)COc2ccc(S(=O)(=O)Nc3ccccc3)cc21
→ 0.2 | 0 | . | . | 1.3% | . | 1.1%
[48] CCCCC(=O)N(C)c1c(C)nc2ccc(C(=O)NCc3ccccc3OC)cn12
→ -0.6 | . | . | . | -2.3% | . | 2.1%
[49] CC(C)Oc1ccc(C(=O)Nc2nc3ccccc3[nH]2)cc1
→ -0.5 | 0 | 1.1 | 9 | . | 22% | 0.9%

# Screen by screen, from the results shown:
# PINK1 modulator, nos. 42 to 49 → -1.4%, 7.3%[38.3 µM], -0.3%, 2.1%, -0.3%, 1.1%, 2.1%, 0.9%
# TRPV1 potentiator, nos. 42 to 49 → -6, -8, ., 1, 0, ., ., 9

# High-throughput results deposited in PubChem BioAssay by National Center for Advancing Translational Sciences (NCATS).
